Compound activity as filed in PubChem.
UCH37 DUB inh: inhibitors of human deubiquitinating enzyme UCH37; Q9Y5K5; inhibition, % (test concentration not listed); 330,000 compounds, 0.33% hits; purified proteasome/UCH37, Ub-AMC cleavage fluorescence;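 active means mean of two replicates above 20%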;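 further: 0% = compound-free wells with enzyme and 100% = wells lacking proteasome; stock transfer was 100 nL into about 20 µL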
Target sequence (Q9Y5K5 whole entry, looked up): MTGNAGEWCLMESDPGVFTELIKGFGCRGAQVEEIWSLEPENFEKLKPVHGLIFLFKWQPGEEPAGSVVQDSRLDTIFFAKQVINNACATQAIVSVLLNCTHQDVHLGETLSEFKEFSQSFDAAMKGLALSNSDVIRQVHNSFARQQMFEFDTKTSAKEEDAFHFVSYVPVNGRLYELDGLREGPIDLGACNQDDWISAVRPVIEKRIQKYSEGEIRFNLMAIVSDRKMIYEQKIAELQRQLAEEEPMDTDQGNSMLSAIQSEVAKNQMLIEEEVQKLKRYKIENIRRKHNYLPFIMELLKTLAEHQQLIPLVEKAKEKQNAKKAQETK
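Assay system: Proteasome-bound UCH37. Buffer or medium: pH 7.4 Tris-HCl (50 mM) with ovalbumin, ATP-MgCl2, DTT. Incubation: 30 min preincubation with enzyme, 25 min cleavage at room temperature. Measured by: fluorescence, ex 355 nm, em 460 nm. Read-out basis: percent inhibition. Control set: wells without proteasome as full block, compound-free enzyme plus substrate as uninhibited.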
E coli growth: blocks Escherichia coli growth; 330,000 compounds, 0.21% hits; OD600 absorbance (no concentration beside the values); AID 1053175; OD600, 23 h; stronger effect = lower value;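 active means OD600 absorbance below the run mean of sample wells minus 3.6 SD, in any replicate, cut at about 0.56 in these data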;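 further: stock transfer was 300 nL into about 60 µL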
* marks the source's active call; other numbers are inactive results. Not all compounds are listed; the hit share may differ from the screen's.

no. | UCH37 DUB inh | E coli growth | Compound
1 | -231 | 0.69 | O=C(NN=Cc1ccc2cccc(OCc3ccccc3)c2n1)c1ccc(Br)cc1
2 | 2.1 | 0.73 | O=C(NN=Cc1c(Cl)cccc1Cl)c1ccc(F)cc1
3 | -5.2 | 0.73 | CCOC(=O)c1c(N=CN(C)C)sc(C=NNc2ccccc2)c1-c1ccccc1Cl
4 | 4.7 | 0.68 | CC(=NNC(=O)c1ccncc1)c1cccc(NC(=O)c2ccc(C(C)(C)C)cc2)c1
5 | -1.6 | 0.66 | COc1ccc(C=Nn2c(SC)nnc2-c2ccccc2)cc1C
6 | 0.6 | 0.69 | CC(=NNC(=O)c1cc(C)[nH]n1)c1ccncc1
7 | 2.3 | 0.73 | O=C(O)c1ccc(C=NN2CCN(Cc3cccc4ccccc34)CC2)cc1
8 | 5.5 | 0.67 | Cc1nn(C(C)(C)C)c(C)c1C=NOC(=O)Nc1ccc(Cl)c(Cl)c1
9 | 2.9 | 0.67 | COc1ccc(C=NNC(=S)NCCc2ccccc2)cc1
10 | 5.3 | 0.68 | Cc1nc(C)c(C(=O)NN=Cc2ccco2)s1
11 | 2.2 | 0.67 | O=C(CNc1ccccc1)NN=Cc1ccc2c(c1)OCO2
12 | 5.7 | 0.63 | O=C(CNC(=O)c1ccncc1)NN=Cc1ccc(O)cc1O
13 | 4.4 | 0.68 | CCOc1ccc(C=NNC(=O)c2ccccc2C)cc1CN1CC2CC(C1)c1cccc(=O)n1C2 (stereo not drawn)
14 | 0.4 | 0.74 | O=C(Cn1cnc2ccccc21)NN=Cc1ccco1
15 | 3.8 | 0.72 | COc1cc(C=NNC(=O)c2ccncc2)ccc1OC(=O)c1cccc(F)c1
16 | 18 | 0.69 | O=C(NN=Cc1ccc(O)c([N+](=O)[O-])c1)c1ccccc1-n1cccc1
17 | 3.3 | 0.69 | Cc1cc(-c2n[nH]c(=S)n2N=Cc2cccc(O)c2)n[nH]1
18 | 5.6 | 0.71 | COc1ccc(OC)c(S(=O)(=O)NN=C(C)c2c[nH]c3ccccc23)c1
19 | 4.7 | 0.69 | CC(=NNC(=O)CSc1nnc(C)s1)c1ccc(Cl)cc1
20 | 2.2 | 0.7 | CC(C)COC(=NS(=O)(=O)c1ccccc1)c1ccccc1
21 | 5.1 | 0.69 | COc1ccc(C=NN2C(C)CCCC2C)cc1OC (stereo not drawn)
22 | -6.2 | 0.73 | CC1=CC(C)[C@H](C=Nn2c(=O)[nH]c3c([nH]c4ccc(Br)cc43)c2=O)C(C)C1 (stereo partly drawn)
23 | 0.3 | 0.69 | COc1cccc(C=NNC(=O)NC23CC4CC(CC(C4)C2)C3)c1O
24 | 2.4 | 0.63 | Cc1ccc(OCC(=O)NN=Cc2cccn2C)c([N+](=O)[O-])c1
25 | 1.2 | 0.73 | COCCCNC(=O)CC(=O)NN=Cc1ccc(SC)cc1
26 | 3.5 | 0.7 | COc1ccccc1NS(=O)(=O)c1cccc(C(=O)NN=Cc2ccccc2OCC(=O)O)c1
27 | -13 | 0.7 | Cn1cccc1CC(=O)NN=Cc1c2ccccc2cc2ccccc12
28 | -11 | 0.72 | CCOC(=O)C=c1sc(=Cc2ccc(C)cc2)c(=O)n1CC(=O)NCc1ccco1
29 | 2.7 | 0.62 | COc1cc(C(=O)NCC(=O)NN=C/C(C)=C\c2ccccc2)cc(OC)c1OC
30 | -1.9 | 0.71 | CC(CC(=O)Nc1ccccn1)=NNC(=O)c1ccccc1
31 | 2.3 | 0.69 | C=CCOc1c(Br)cc(C=NO)cc1OCC
32 | 6.4 | 0.66 | CC(=NNc1nc(C)cc(C)n1)c1ccc(N2CCOCC2)cc1
33 | 3.4 | 0.7 | COc1cc(C=NOCC(=O)NC2CCCCC2)ccc1OCc1ccccc1
34 | 9.8 | 0.79 | O=[N+]([O-])c1cccc(C=NNc2cc(Cl)nc(-c3ccccc3)n2)c1
35 | 3.9 | 0.67 | CC(CC(=O)NC12CC3CC(CC(C3)C1)C2)=NNC(=O)c1ccc(C)cc1
36 | 2.4 | 0.7 | COc1ccc(C(C)=NNC(=O)CNC(=O)c2cccnc2)cc1
37 | 7.7 | 0.65 | CC(=NNC(=O)C(N)=O)c1ccc(O)cc1O
38 | 0.6 | 0.72 | CC1Oc2ccccc2C=C1C=NNc1ccc(C(=O)O)cc1 (stereo not drawn)
39 | 3.5 | 0.71 | CC(=NNS(=O)(=O)c1ccc(C(C)(C)C)cc1)c1ccc2c(c1)OCO2
40 | 7.8 | 0.7 | CC(=NNC(=O)c1cccnc1)c1c(O)cc(C)oc1=O
41 | 3.4 | 0.7 | NC(=NOC(=O)CSc1ccccc1)c1cccc([N+](=O)[O-])c1
42 | 3.1 | 0.69 | CSc1nnc(C(C)(C)C)c(=O)n1N=Cc1ccc(C(C)C)cc1
43 | 1.6 | 0.71 | COC(=O)c1ccc(C=NN2CCN(c3ccccc3)CC2)cc1
44 | 4.6 | 0.78 | C=CCNC(=S)NN=Cc1ccc(OCc2ccccc2Cl)cc1
45 | 10 | 0.65 | O=C1NCCCC1=NNc1ccc(F)cc1
46 | -4.4 | 0.69 | COc1ccc(C(=O)NN=C(C)c2ccc3c(c2)C2C=CCC2C(c2ccccc2)N3)cc1 (stereo not drawn)
47 | 2.4 | 0.65 | CCOC(=O)COc1c(C=NO)cc(Cl)cc1OC
48 | -0.4 | 0.68 | CC(=NNC(=O)CSCc1ccc([N+](=O)[O-])cc1)c1ccccc1
49 | 4.2 | 0.67 | COc1ccc(C=NN2CCN(Cc3ccccc3Cl)CC2)cc1
50 | -10 | 0.72 | COc1cc(C=NNC(=O)C2C(=O)NCC2c2ccccc2)cc(OC)c1O (stereo not drawn)

Next section:
no. | UCH37 DUB inh | E coli growth | Compound
51 | 12 | 0.61 | O=C(NN=Cc1ccncc1)c1cc2ccccc2cc1O
52 | 9.1 | 0.67 | COc1ccccc1/C=C/C=Nn1c(-c2ccccn2)n[nH]c1=S
53 | 7.4 | 0.71 | C#CCOc1ccccc1C=NNC(=O)c1ccccc1OCc1ccccc1
54 | 17 | 0.44* | Cc1ccc(C(=O)NN=Cc2ccc([N+](=O)[O-])o2)cn1
55 | 6.0 | 0.7 | COc1ccc(C=NNC(=O)CSc2nnc(C)n2-c2ccccc2)c(OC)c1OC
56 | 2.2 | 0.67 | O=C(O)COc1ccccc1C=NNC(=O)CSc1nc2ccccc2n1Cc1ccc(Cl)cc1
57 | 6.1 | 0.68 | Cc1cccc(NN=C(C(N)=O)C2=NC(C)(C)Cc3ccccc32)c1
58 | 3.5 | 0.7 | COc1cc(C=NN2CCN(Cc3ccccc3)CC2)cc(OC)c1OC(C)=O
59 | 4.9 | 0.76 | COc1ccc(C=NNS(=O)(=O)c2ccc(C)cc2)cc1OC(=O)c1ccc(C)cc1
60 | 5.3 | 0.72 | O=C(ON=C1CCSc2ccccc21)c1ccc(F)cc1
61 | 3.3 | 0.68 | CN(C)C=Nc1c(C(=O)NCc2ccccc2)nnn1Cc1ccccc1
62 | 0.1 | 0.64 | Cc1c(C=NNC(=O)C(NC(=O)c2ccc3c(c2)OCO3)C(C)C)c2ccccc2n1C (stereo not drawn)
63 | -20 | 0.64 | N#CCC(=O)NN=Cc1coc2ccccc2c1=O
64 | 1.4 | 0.65 | Cc1nnc(C)n1N=Cc1ccc(C(=O)O)cc1
65 | 3.1 | 0.63 | CCc1ccc(N2CC(C(=O)NN=Cc3cccc([N+](=O)[O-])c3)CC2=O)cc1 (stereo not drawn)
66 | 1.0 | 0.71 | Cc1ccc(-c2nnc(SCC(=O)NN=Cc3ccc(C)s3)n2-c2ccccc2)cc1
67 | 1.1 | 0.64 | Cc1cccc(N=Cc2ccccn2)n1
68 | -14 | 0.72 | Cc1cc(C(=O)NN=Cc2cc(C(C)(C)C)ccc2O)n[nH]1
69 | 5.8 | 0.69 | COc1cc(C=NNC(=O)c2sc(N)c(C#N)c2C)ccc1O
70 | 4.2 | 0.68 | CCC(=O)Nc1ccc(C(=O)NN=Cc2cccnc2)cc1
71 | 1.0 | 0.64 | CN(C)c1ccc(C=Nn2c(-c3ccccc3Br)n[nH]c2=S)cc1
72 | 3.5 | 0.65 | O=C(NN=Cc1ccccc1)c1[nH]ncc1Br
73 | 5.8 | 0.66 | COc1ccc(C=NNC(=O)C(=O)NCC2CCCO2)cc1 (stereo not drawn)
74 | -3.3 | 0.71 | C(=NNc1ccccn1)c1ccc(N2CCOCC2)cc1
75 | -0.1 | 0.66 | Cc1ccccc1OCC(=O)NCC(=O)NN=Cc1ccc(Br)o1
76 | -2.2 | 0.68 | O=C(CNc1ccc2c(c1)OCO2)NN=Cc1cn(Cc2ccccc2)c2ccccc12
77 | 2.3 | 0.62 | O=C(CN1CCN(Cc2ccccc2)CC1)NN=Cc1cccs1
78 | 0.0 | 0.72 | CC(NC(=O)C12CC3CC(CC(C3)C1)C2)C(=O)NN=CC1=C(N2CCOCC2)/C(=C\c2ccccc2)CC1 (stereo not drawn)
79 | 4.1 | 0.68 | COc1cccc(C(=O)NN=C(CC(C)C)c2ccccc2)c1
80 | 4.9 | 0.7 | CCOc1ccc(C=NNC(=O)c2c(C)n(C)c3ccc(OC)cc23)cc1
81 | 1.6 | 0.68 | S=C(NCCc1ccccc1)NN=Cc1c(Cl)cccc1Cl
82 | 7.6 | 0.6 | COc1ccc(NN=C(C#N)C(=N)SCc2ccccc2)cc1
83 | 5.7 | 0.63 | O=C(NN=C1C2CN3CCN(C2)CC1(c1ccccc1)C3)Nc1ccccc1
84 | 4.1 | 0.69 | CCc1ccc2c(c1)C(=NN(C)C(=S)NC)C(=O)N2
85 | 5.1 | 0.66 | CC(=NNC(=O)c1nc2ccccn2c1C)c1cccc([N+](=O)[O-])c1
86 | 4.9 | 0.67 | CCn1c(C(C#N)C(=NS(=O)(=O)c2cccs2)c2ccccc2)nc2ccccc21 (stereo not drawn)
87 | -0.7 | 0.67 | COc1ccc(C=NNc2nc(-c3ccc(C)cc3)c(NC(C)=O)s2)cc1OC
88 | 13 | 0.71 | CN(C)c1ccc(C=NNC(=O)C(=O)N2CCCCCC2)cc1
89 | 1.8 | 0.68 | CC(=NOCC(=O)Nc1ccccc1)c1cccs1
90 | 0.4 | 0.67 | COc1cc(C(=O)Oc2cccc(C=NNC(=O)c3cc(C)[nH]n3)c2)cc(OC)c1OC
91 | -2.7 | 0.73 | COc1cccc(C(=O)NN=C(C)c2cccc(NC(=O)c3ccc(F)cc3)c2)c1OC
92 | 12 | 0.67 | COc1ccccc1C1C2=C(N=c3sc(=Cc4cccc(OCC(=O)O)c4)c(=O)n31)c1ccccc1CC2 (stereo not drawn)
93 | 4.9 | 0.68 | O=C(NN=Cc1ccc(OCc2ccccc2)cc1)c1cc[n+](Cc2ccccc2)cc1
94 | 3.3 | 0.71 | Cc1ccc(C=NNC(=O)Cn2cnc3c2c(=O)n(C)c(=O)n3C)s1
95 | 5.2 | 0.66 | Cc1ccc(C)c(N2C(=O)CSC2=NNC(=O)c2ccccc2Cl)c1
96 | 2.7 | 0.71 | Cc1ccccc1N(CC(=O)NN=Cc1ccc(Cl)cc1)C(=O)c1ccccc1
97 | 1.9 | 0.72 | O=C(NN=Cc1cccnc1)C(O)(c1ccccc1)c1ccccc1
98 | 1.6 | 0.65 | CC(=NNC(N)=O)c1ccccc1
99 | 17 | 0.66 | COc1ccc(NN=C(C#N)S(=O)(=O)C(C)(C)C)cc1
100 | 4.8 | 0.71 | CC(/C=C/C=C/c1ccccc1)=NNC(=O)c1ccc2c(c1)OCCO2

Following part.
no. | UCH37 DUB inh | E coli growth | Compound
101 | -5.9 | 0.67 | COc1ccc(C=NNC(=O)c2ccc(Cl)c(S(N)(=O)=O)c2)cc1OCC(N)=O
102 | 4.1 | 0.66 | CC(=NNc1ncc(Br)cn1)c1ccc(Br)cc1
103 | 4.5 | 0.61 | COc1ccc(C=NNC(=O)c2ccoc2C)cc1O
104 | 5.7 | 0.71 | COc1ccc(N2C(=O)CSC2=NC(=S)Nc2ccccc2)cc1
105 | -38 | 0.7 | COc1cc(C=NNC(=O)c2ccc(-c3ccccc3)cc2)cc(OC)c1OC
106 | 5.9 | 0.72 | CN(C)c1nc(NCc2ccccc2)nc(NN=Cc2ccc(Br)cc2)n1
107 | 1.6 | 0.69 | O=[N+]([O-])c1ccc(S(=O)(=O)NN=Cc2ccco2)cc1
108 | 1.8 | 0.68 | CCC1CCCC1=NNC(=O)CCC(=O)Nc1ccccc1Cl (stereo not drawn)
109 | 5.9 | 0.68 | COc1ccc(C=NNC(=O)c2ccc[nH]2)cc1
110 | 2.4 | 0.69 | O=C(NN=Cc1ccc2c(c1)OCO2)c1cccc2ccccc12
111 | 2.5 | 0.72 | CC(=NNC(=O)c1c(Br)c(C)nn1C)c1ccc(NC(=O)C(C)Oc2ccc(Cl)cc2C)cc1 (stereo not drawn)
112 | 4.5 | 0.7 | CC(=NNC(=O)Cc1c(Cl)cccc1Cl)c1cccnc1
113 | 2.4 | 0.71 | O=C(NN=Cc1cccnc1)c1ccc(F)cc1
114 | 13 | 0.68 | O=C(O)c1cccc(Cn2c(Cl)c(C=NNC(=O)c3cccc(O)c3)sc2=O)c1
115 | 8.6 | 0.69 | CC(=NNC(=O)C(O)c1ccccc1)c1ccc(C)s1 (stereo not drawn)
116 | 7.5 | 0.71 | Cc1ccc2cc(C=NNc3nc4ccccc4[nH]3)c(Cl)nc2c1
117 | -4.1 | 0.66 | S=c1[nH]c(-c2ccccc2)cn1N=Cc1cccs1
118 | 1.7 | 0.67 | COc1ccc(CC(=O)NN=C(C)CC(=O)Nc2ccc3c(c2)OCCO3)cc1OC
